SNCA expr inhib – SNCA gene expression inhibition | HEK-293 SNCA-luciferase knock-in, luminescence, 24 h | AID 1671194 | Potency, µM (doses to about 57.2 µM), without a hit: top-dose activity change, negative = inhibition, usual class: inhibitors | actives 0.17% (n = 140,000);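 further: plate controls were DMSO cells for no effect and cell-free wells for full effect; nearly all actives have a fitted effect of over 45% in size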
HEK cytotox – cytotoxic compounds in HEK 293 cells. HEK 293 viability, ATP luminescence (CellTiter-Glo), 48-72 h. Potency, µM (top dose mostly 115 µM), inactives show top-dose activity change, negative = cytotoxicity, usual class: inhibitors. actives 6.6% (n = 94,000). AID 1345083; further: nearly all actives have a fitted effect of over 60% in size
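Read-out: CellTiter-Glo ATP luminescence. Cells: HEK 293, 250 cells/well. Exposure: 48 or 72 hr, 37 degree Celsius.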
Luciferase inh – blocks purified firefly luciferase enzyme activity; Potency, µM (doses to about 115 µM), for inactives: at the highest dose activity change, negative = inhibition, usual class: inhibitors; purified P. pyralis luciferase, luminescence, biochemical; P08659; actives 2.5% (n = 76,000); further: nearly all actives have a fitted effect of over 65% in size
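Purified P. pyralis luciferase (10nM final) in 50mM Tris acetate pH 7.5, 10mM Mg acetate, 0.01% Tween-20, 0.05% BSA with 10uM D-luciferin and 10uM ATP. Compounds titrated qHTS. Luminescence imaged on CCD.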
GPT2 inhibitor – blocks human glutamate pyruvate transaminase 2. Potency, µM (top dose mostly 57.7 µM), inactives show top-dose activity change, negative = inhibition, most hits filed as inhibitors. Recombinant GPT2, coupled pyruvate oxidase/HRP Amplex Red fluorescence. Q8TD30. AID 1671188. actives 0.25% (n = 100,000); further: nearly all actives have a fitted effect of over 60% in size; many of its hits are not listed in these tables
Target sequence (Q8TD30 whole entry, looked up): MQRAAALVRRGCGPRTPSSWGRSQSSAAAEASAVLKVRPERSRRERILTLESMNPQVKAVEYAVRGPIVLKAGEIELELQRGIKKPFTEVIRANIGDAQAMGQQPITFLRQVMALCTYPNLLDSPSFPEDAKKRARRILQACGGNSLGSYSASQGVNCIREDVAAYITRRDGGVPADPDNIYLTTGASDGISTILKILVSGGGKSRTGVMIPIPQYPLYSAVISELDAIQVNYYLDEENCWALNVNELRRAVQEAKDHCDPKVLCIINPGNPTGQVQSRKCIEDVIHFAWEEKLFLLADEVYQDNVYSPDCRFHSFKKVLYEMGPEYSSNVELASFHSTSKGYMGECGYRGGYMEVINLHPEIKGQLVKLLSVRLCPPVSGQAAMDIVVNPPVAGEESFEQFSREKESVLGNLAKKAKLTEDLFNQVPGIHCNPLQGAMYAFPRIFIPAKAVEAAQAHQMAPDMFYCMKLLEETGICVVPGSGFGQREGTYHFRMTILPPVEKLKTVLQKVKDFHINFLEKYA
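Fluorescence read-out: pyruvate from GPT2 turnover coupled to pyruvate oxidase, HRP and Amplex Red (0.2mM ThPP, 0.2U/mL PO and HRP, 50uM Amplex final). Substrates 250uM a-KG, 2mM L-alanine; enzyme 10ng/uL; 30 min RT.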
SNCA viab count – counter-screen for SNCA expression inhibitors: cell viability; Potency, µM (highest dose often 57.1 µM), for the others: top-dose activity change, negative = cytotoxicity, usual class: cytotoxic; HEK-293-SNCA-luc viability, GF-AFC fluorescence, 24 h; actives 0.12% (n = 150,000);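 further: 0% = DMSO-treated cells and -100% = medium-only wells without cells; nearly all actives have a fitted effect of over 30% in size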
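Cytotoxicity counterscreen: after 24 h compound treatment of genome-edited SNCA-luciferase HEK-293 cells, live-cell protease substrate GF-AFC read by fluorescence after 30 min; activity scaled between DMSO (0%) and medium-only (-100%), curves Hill-fitted.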
3T3 cytotox – NIH 3T3 cell cytotoxicity | NIH 3T3 viability, CellTiter-Glo ATP luminescence, 48-72 h | Potency, µM (titrated, usually from 96.7 µM), for inactives: at the highest dose activity change, negative = cytotoxicity, most hits filed as inhibitors | actives 4.3% (n = 94,000) | AID 1345082; further: nearly all actives have a fitted effect of over 55% in size
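ATP-dependent luminescence (CellTiter-Glo) served as the viability signal for NIH 3T3 cells treated with compound for 48 or 72 hr at 37 °C.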
Active calls of the source: *; i = inactive; u = inconclusive; x = not tested or not shown; & = joins results of further samples; [ ] = another dose, or the depositor's remark. The call rests on the fitted dose curve; in most records, active means well fitted curve in the direction sought with a large enough effect; inconclusive means small, poorly fitted or top-dose-only effect, or another doubt; inactive means no such curve, though single readings can be large; an effect the other way counts as inactive or inconclusive. Unless noted, on the % scale 0 is the no-effect control and ±100 the full control effect; potency means the concentration at half of the fitted maximal effect. Only part of the results is shown; rates above refer to the full screens.

Each structure is followed by: SNCA expr inhib	HEK cytotox	Luciferase inh	GPT2 inhibitor	SNCA viab count	3T3 cytotox
[1] O=C(CC1C(=O)N(c2ccc(F)cc2)C(=O)N1Cc1ccc2c(c1)OCO2)Nc1ccc(Cl)cc1 (configuration not stated)
    u	x	x	x	-4%	x
[2] Cc1cc(C)c2c(=O)cc(C(=O)Nc3ccccc3Cl)oc2c1
    92%[activator]	x	x	x	0%	x
[3] Cc1c(C(=O)N[C@H](c2cnn(C)c2)C2CC(O)C2)sc2nc[nH]c(=O)c12 (some centres not stated)
    14%	2%	4%	i	-6%	1%
[4] CSc1nn(CC(=O)Nc2ccc(C)cc2C)c(N)c1S(=O)(=O)c1ccc(Cl)cc1
    u	x	x	x	-9%	x
[5] COc1ccc(-n2ccnc(NCCc3ccc(Cl)cc3)c2=O)cc1OC
    -11%	x	x	x	0%	x
[6] CC(=O)N1c2ccc(S(=O)(=O)NCCC(=O)Nc3ccc(Br)c(C)c3)cc2CC1C (configuration not stated)
    u	x	x	x	-10%	x
[7] Cn1ncc2c(Nc3cccc(C#N)c3)ncnc21
    22%	x	x	x	-2%	x
[8] O=C(NCc1ccc2c(c1)OCO2)c1nc(-c2ccsc2)c2ccccn12
    25%	u	u	i	-4%	-27%
[9] Cc1cccc(NC(=O)c2sc(-n3nc(C)c(Cc4ccc5c(c4)OCO5)c3C)nc2C)c1C
    33%[activator]	x	x	x	u	x
[10] CN(C)C(=O)c1nc(-c2ccc(Cl)nc2)c2cnccn12
    40%[87.6 µM]	i	x	0%[88.5 µM]	6%[87.6 µM]	-5%[138 µM]
[11] O=C(c1cc(F)cc(F)c1)N1CCC(c2nc(-c3ccc(S(=O)(=O)N4CCCC4)cc3)no2)CC1
    5%	x	x	x	-3%	x
[12] CC(C)CCN1C[C@@H](NC(=O)c2cccnc2)C[C@H]1CO
    -11%	2%	-6%	i	4%	0%
[13] CCc1ccc(-n2c(SCc3ccccc3Cl)nc3[nH]ncc3c2=O)cc1
    8%	x	x	x	-27%	x
[14] CCc1ccc(NC(=O)c2cc3c(=O)n(Cc4cccs4)ccc3nc2C)cc1
    u	x	x	x	0%	x
[15] CCNC(=O)CC1C(=O)N(c2ccc(F)cc2)C(=O)N1Cc1ccc(C)cc1 (configuration not stated)
    13%	x	x	x	-5%	x
[16] Cc1ccc(-n2c(SCc3ccccc3F)nc3[nH]ncc3c2=O)cc1C
    0%	x	x	x	-13%	x
[17] CCCCCN(CCCCC)C(=O)C(CCC(=O)O)NC(=O)c1ccc(Cl)c(Cl)c1 (configuration not stated)
    4%	x	x	0%&-11%	-4%	x
[18] CCc1ccc(NC(=O)C(CC)n2nnc(C(=O)OC)c2C(=O)OC)cc1 (configuration not stated)
    u	x	x	x	8%	x
[19] COC[C@@H]1CN(C(=O)CCn2cc(C)cn2)C[C@H]1c1nc(C2CC2)no1
    -1%	u	-3%	-9%	1%	4%
[20] CN1CCN(C(=O)C(=O)Nc2c3c(nn2-c2cccc(Cl)c2)CSC3)CC1
    5%	x	x	x	-12%	x

Molecules from the list above that contain fluorine, in the order listed:
Each structure is followed by: SNCA expr inhib	HEK cytotox	Luciferase inh	GPT2 inhibitor	SNCA viab count	3T3 cytotox
[1] O=C(CC1C(=O)N(c2ccc(F)cc2)C(=O)N1Cc1ccc2c(c1)OCO2)Nc1ccc(Cl)cc1 (configuration not stated)
    u	x	x	x	-4%	x
[11] O=C(c1cc(F)cc(F)c1)N1CCC(c2nc(-c3ccc(S(=O)(=O)N4CCCC4)cc3)no2)CC1
    5%	x	x	x	-3%	x
[15] CCNC(=O)CC1C(=O)N(c2ccc(F)cc2)C(=O)N1Cc1ccc(C)cc1 (configuration not stated)
    13%	x	x	x	-5%	x
[16] Cc1ccc(-n2c(SCc3ccccc3F)nc3[nH]ncc3c2=O)cc1C
    0%	x	x	x	-13%	x

Single records, from the list above. Screens in order: SNCA expr inhib, HEK cytotox, Luciferase inh, GPT2 inhibitor, SNCA viab count, 3T3 cytotox
Listed for `CCNC(=O)CC1C(=O)N(c2ccc(F)cc2)C(=O)N1Cc1ccc(C)cc1` (configuration not stated) → 13%, x, x, x, -5%, x
Listed for `CN1CCN(C(=O)C(=O)Nc2c3c(nn2-c2cccc(Cl)c2)CSC3)CC1` → 5%, x, x, x, -12%, x
Listed for `O=C(c1cc(F)cc(F)c1)N1CCC(c2nc(-c3ccc(S(=O)(=O)N4CCCC4)cc3)no2)CC1` → 5%, x, x, x, -3%, x

(listing goes on)
Each structure is followed by: SNCA expr inhib	HEK cytotox	Luciferase inh	GPT2 inhibitor	SNCA viab count	3T3 cytotox
[21] CCOc1ccccc1CNC(=O)Nc1cn(CC(C)C)c(=O)c2ccccc12
    -24%	x	x	x	0%	x
[22] COc1cccc(C2C(C(=O)Nc3ccccc3)=C(C)Nc3nnnn32)c1OC (configuration not stated)
    -3%	x	x	x	-21%	x
[23] O=C(c1nc(-c2cccnc2)c2ccccn12)N1CCOCC1
    -9%[87.6 µM]	3%[172 µM]	x	i	-6%[87.6 µM]	-14%[138 µM]
[24] O=C(c1ccc(Cl)cc1)N1CCC2(CC1)C(=O)Nc1ccccc12
    7%	-17%	x	-9%	-11%	1%
[25] COc1ccccc1CNC(=O)C(C)n1c(=O)cc(-c2ccccc2)c2c(C)nn(C)c21 (configuration not stated)
    -13%	x	x	x	-26%	x
[26] Cn1c(C(=O)NCCc2ccccc2)cc2c(=O)n3ccccc3nc21
    113%[activator]	x	x	x	u	x
[27] Cc1ccc(C)c(NC(=O)CN(C)S(=O)(=O)c2ccc3c(c2)CCC(=O)N3)c1
    -6%	x	x	x	-29%	x
[28] COc1ccc(Cn2ccc3nc(C)c(C(=O)Nc4ccc(C)c(F)c4)cc3c2=O)cc1
    33%[activator]	x	x	x	-5%	x
[29] C=CCc1cccc2cc(-c3nc4ccc(C(=O)O)cc4[nH]3)c(=O)oc12
    92%[activator]	x	x	x	18%	x
[30] COc1ccc(C2(C(=O)N3CC(c4noc(COc5ccc(F)cc5)n4)C3)CC2)cc1
    62%[activator]	u	x	i	-12%	u
[31] CCC(=O)Nc1sc2c(c1C(=O)Nc1ccccc1C)CCC(C)C2 (configuration not stated)
    21%	x	x	x	u	x
[32] Clc1ccc(CSc2ccc(-c3cccs3)nn2)cc1
    14%	x	x	x	2%	x
[33] Cn1cc([C@@H](NC(=O)CCc2ccsc2)C2CC(O)C2)cn1 (some centres not stated)
    13%	3%	2%	i	-3%	5%
[34] COc1ccc(-n2ccnc(NCc3ccccc3Cl)c2=O)cc1OC
    6%	x	x	x	-7%	x
[35] CCNC(=O)CC1C(=O)N(c2ccc(C)cc2)C(=O)N1CCOC (configuration not stated)
    24%	x	x	x	0%	x
[36] Cc1cccc(C)c1-c1nc(C(=O)N2CCOCC2)n2ccccc12
    -1%	-19%	x	-49%	-2%	-24%
[37] CCOC(=O)c1cc(-c2ccc(C)cc2)nn1Cc1ccccc1
    182%[activator]	x	x	x	14%	x
[38] COc1cccc(-c2cc(C(F)(F)F)nc(NCCc3ccccc3)n2)c1
    43%[activator]	x	x	x	16%	x
[39] CC(=O)c1cccc(NC(=O)C2=CC(c3ccc4c(c3)OCO4)=NS(=O)(=O)N2C)c1
    21%	x	x	x	-24%	x
[40] O=C(c1cccnc1)N1CCC(n2c(=O)[nH]c3ccccc32)CC1
    -11%[87.6 µM]	i	x	i	-11%[87.6 µM]	i
[41] COC[C@@H]1CN(C(=O)c2ccc3[nH]ccc3c2)C[C@H]1c1nc(C)no1
    6%	4%	-8%	0%	-4%	5%
[42] Cc1ccc(S(=O)(=O)Nc2ccc3c(c2)CCCN3C(=O)c2cccs2)cc1C
    u	x	x	x	-24%	x
[43] CCCN(Cc1nccn1C)C(=O)c1cccc(C2CCNC2)c1 (configuration not stated)
    -34%	0%	-4%	i	-21%	-4%
[44] Cc1ccccc1-c1cc(C(=O)NCC[S+](C)(=O)[O-])c2c(c1)N(C)CCO2
    -20%[87.6 µM]	u	-1%[172 µM]	-14%[88.5 µM]	0%[87.6 µM]	u
[45] O=C(Nc1ncc(-c2cccc(F)c2)c2c1OCC2)c1cccnc1
    0%[87.6 µM]	-55%[172 µM]	13%[172 µM]	1%[88.5 µM]	-2%[87.6 µM]	u
[46] Cc1cccc(N2CCN(C(=O)CCc3nnc4n(CC(C)C)c(=O)c5ccccc5n34)CC2)c1C
    21%	x	x	x	-15%	x
[47] O=c1c(NCCc2ccc(Cl)cc2)nccn1-c1ccccc1
    43%[activator]	x	x	x	2%	x

Bioassay records as filed in PubChem.
